Ecoli rRNA inh = inhibits bacterial ribosomal RNA function over humanized ribosomes | E. coli WT GFP vs humanized-ribosome RFP mutants, fluorescence, 24 h; active compounds read low; DMSO median 0, no signal -100 | GFP signal change (wild-type ribosome), % (no concentration beside the values) | 1.6% of 350,000 active;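 active = significant combined selectivity score with lowered wild-type GFP, culture density cut under 30%, mutant RFP and density less affected; inactive = any of these conditions unmet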; also: one replicate is shown; some compounds called inactive have numbers as strong as hits
AF4-AF9 inh = MLL-AF4/AF9 protein interaction inhibition; P42568; inhibition, % at 10 µM; AID 651704; 0.47% of 350,000 active; AlphaScreen, biotin-AF4 peptide binding to FLAG-AF9;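 active = every replicate reaching a set inhibition limit, whatever the replicate mean, cut at about 25% in these data; inconclusive = mean inhibition reaches that limit but some replicates miss it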;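 also: 0% = plate neutral control median and 100% = total signal loss; the record names both 10 and 1 µM as test concentration; the first replicate is given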
Target sequence (P42568 whole entry, looked up): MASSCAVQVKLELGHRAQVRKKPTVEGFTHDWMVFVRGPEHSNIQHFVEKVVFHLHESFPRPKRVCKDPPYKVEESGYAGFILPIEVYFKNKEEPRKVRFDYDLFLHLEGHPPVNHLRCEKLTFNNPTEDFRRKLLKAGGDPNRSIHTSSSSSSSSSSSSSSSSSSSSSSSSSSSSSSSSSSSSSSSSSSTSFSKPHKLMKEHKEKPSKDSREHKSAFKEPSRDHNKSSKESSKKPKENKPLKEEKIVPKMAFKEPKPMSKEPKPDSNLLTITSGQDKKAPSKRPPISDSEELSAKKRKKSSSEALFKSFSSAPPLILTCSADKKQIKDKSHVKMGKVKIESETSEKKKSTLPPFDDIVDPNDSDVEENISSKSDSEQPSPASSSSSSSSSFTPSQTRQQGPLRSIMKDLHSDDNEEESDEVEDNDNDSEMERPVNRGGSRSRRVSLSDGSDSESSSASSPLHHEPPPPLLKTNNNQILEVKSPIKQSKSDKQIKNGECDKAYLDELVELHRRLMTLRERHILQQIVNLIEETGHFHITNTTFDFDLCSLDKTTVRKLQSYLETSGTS
Beta apoptosis = blocks beta cell apoptosis. AID 435005. protection from apoptosis, % (no concentration beside the values). INS-1E cytokine-induced death, ATP luminescence, 48 h; percent of positive-control rescue, neutral wells zero. 0.8% of 300,000 active;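 active = all replicates at 75% or more, or half of them and the mean; inconclusive = half reach 75% but not the mean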;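 also: 0% = cytokine-treated negative control wells and 100% = positive control rescue; higher means more ATP so stronger rescue from cytokine killing; wells of about 40 µL received 100 nL stock; the first replicate is given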
Vif TR-FRET = HIV-1 Vif–A3G interaction blockers – biochemical, TR-FRET, GST-Vif 1-94, biotin-A3G peptide, dose response retest, primary screen (AID 1117319); TR-FRET GST-Vif / biotin-A3G peptide binding; higher % means a stronger effect; test concentration not given here; strong numbers were not always called active; one-dose inhibition, %; IC50 in µM for titrated hits; 0.57% of 260,000 active;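 active = above the screen mean plus three standard deviations and confirmed in dose response; inconclusive = results disagree or hit not tested in dose response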;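 also: Vif residues 1-94 fused to GST binding biotinylated APOBEC3G peptide 110-148; 0% = full assay without inhibitor and 100% = GST in place of GST-Vif; retest series ran down from 100 µM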
T cruzi inh = blocks replication of Trypanosoma cruzi; 1.4% of 300,000 active; AID 1885; T. cruzi beta-gal in NIH3T3, luminescence, 90 h; inhibition, % (no concentration beside the values);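 active = mean inhibition across valid replicates above about 55%, limit read from the data; inconclusive = mean below that limit but half or more replicates reach it; inactive = mean below it, under half of replicates reach it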;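 also: signal also drops with host cell toxicity which is not excluded here; 0% = plate median of DMSO wells and 100% = zero luminescence signal; higher percent means less beta-gal luminescence so fewer parasites; stock transfer was 50 nL into about 50 µL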
RanGTP-Impb inh = disruptors of Ran-importin-beta complex formation – biochemical, FRET, CFP-Ran, YFP-importin-beta, homogeneous, primary screen; inhibition, % (concentration not given with the values); cell-free CFP-Ran/YFP-importin-beta FRET ratio; 1.1% of 300,000 active;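 active = most replicates above 15%; inconclusive = exactly half above 15%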;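 also: 0% = DMSO wells and 100% = Ran loaded with GDP instead of GTP; wells of about 40 µL received 100 nL stock; the first replicate is given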
Bfl-1 A1 inh = inhibitors of the anti-apoptotic protein A1, read as caspase activation | caspase activation, % (concentration not given with the values) | 0.066% of 330,000 active | AID 2462 | MEF A1-2A-BIM cells, Caspase-Glo 3/7 luminescence, 3 h; percent of clofoctol response, vehicle zero;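 active = over half of replicate activation scores above 10%, or exactly half above 10 with the replicate mean above 10; inconclusive = replicate mean below 10 yet half the replicates above 10; inactive = over half of replicates below 10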;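 also: wells of about 30 µL received 50 nL stock; many hits fall short of the cut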
Calb FLC = C. albicans growth modulation with fluconazole; C. albicans CaCi-2 (fluconazole-resistant clinical isolate) + fluconazole, Alamar Blue growth, 48 h; growth inhibition, % (concentration not given with the values); 0.57% of 300,000 active; AID 1979;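 active = most replicates above 75%; inconclusive = exactly half above 75%; inactive = most below 75%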;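 also: all wells also contain fluconazole at 8 µg/ml as a sub-toxic cotreatment; 0% = median of DMSO wells and 100% = median of geldanamycin control wells; wells of about 8 µL received 7.5 nL stock; the first replicate is given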
Ecoli rRNA inh OD600 = further read-out of Ecoli rRNA inh, marked with its call; OD600 change, %; measured here: OD600 growth;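 optical density of the mix in the first replicate; 0 = DMSO median and -100 = no signal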
Ecoli rRNA inh RFP = second read-out of Ecoli rRNA inh, no call of its own (marks repeat the call); RFP signal change, %; measured here: RFP humanized mutant strains;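 first replicate; 0 = DMSO median and -100 = no signal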
An asterisk follows results filed as active; ? = inconclusive; . = no result given.

SMILES	Ecoli rRNA inh	Ecoli rRNA inh OD600	Ecoli rRNA inh RFP	AF4-AF9 inh	Beta apoptosis	Vif TR-FRET	T cruzi inh	RanGTP-Impb inh	Bfl-1 A1 inh	Calb FLC
CC(C)(C)n1nnnc1C(c1ccncc1)N(Cc1ccccc1)Cc1ccco1 (centres undefined)	.	.	.	.	-4	11%	23	7.9	-0.7	4
Cc1ccc(S(N)(=O)=O)c(C)c1-n1cnnn1	18	11	1.3	-0.4	9	-2%	-3	-0.6	-0.5	-6
CC(=O)NCCC(=O)N1CCCC(CNC(=O)c2ccc(-c3ccccc3)cc2)C1 (centres undefined)	.	.	.	-3.9	-8	?	-3	-0.6	0.9	1
O=C(COC(=O)/C=C/c1ccc(Cl)c(Cl)c1)NC1CC1	2	7	3.1	1.8	-4	.	.	.	-0.2	.
Cc1ccsc1/C=c1\sc2ncnn2c1=O	.	.	.	.	-11	?	-16	3.0	0.0	-1
COC(=O)C1C(=O)c2c(C)noc2CC1(C)C (centres undefined)	16	14	1.2	-4.0	-3	1%	-6	0.1	-0.2	-15
Cc1cc(C)nc(SCc2ccc(Cl)cc2)n1	-20	-16	-5.6	-2.7	0	.	-16	-0.4	0.5	-1
NC(=O)NC(=O)C(OC(=O)CCNS(=O)(=O)c1ccccc1)c1ccccc1 (centres undefined)	6	5	-1.2	-0.5	-5	-3%	-14	-3.2	0.2	-7
O=C(N/N=C/c1ccco1)C(O)c1ccccc1 (centres undefined)	18	16	1.4	-0.1	.	4%	-9	-3.1	0.8	-2
COc1cccc(NC(=S)Nc2cc(C(=O)O)ccc2N2CC3CC(C2)c2cccc(=O)n2C3)c1 (centres undefined)	14	27	9.0	?	1	-1%	-42	1.1	0.3	27
COC(=O)CNC(=O)CSc1nc(N)cc(=O)[nH]1	.	.	.	.	-8	3%	-5	-2.9	-0.2	-19
O=C(c1cccc(Oc2c(Cl)cccc2[N+](=O)[O-])c1)N1CCOCC1	5	4	0.1	-1.0	2	1%	-12	0.5	0.4	-4
O=C(NC(=S)Nc1ccc(CN2CCOCC2)cc1)c1ccc(-c2ccc(Br)cc2)o1	.	.	.	.	-6	-20%	-13	-0.1	-0.7	23
CCOc1ccc2nc3sc(C(=O)N4CCOCC4)c(N)c3cc2c1	-9	26	2.9	0.1	-12	-5%	9	-3.7	-3.5	8
C=CCc1ccc(OCCOCCOc2cccc3cccnc23)c(OC)c1	-25	-18	19	-0.4	-2	.	14	-1.7	0.3	-7
Cc1ccc(NC(=S)NCc2ccc3c(c2)OCO3)cc1	.	.	.	.	-9	.	-18	0.7	-0.2	-29
Cc1ccc(NC(=O)c2cccc(C(=O)Nc3ccc(C)c(C)c3)n2)cc1C	8	1	-0.7	-0.5	-7	.	3	1.0	2.9	0
COc1cc2c(cc1OC)CN(C(=O)C1CCC(=O)N(CCCN3CCOCC3)C1)CC2 (centres undefined)	-8	-4	-4.7	-0.8	-6	-4%	-25	7.1	0.0	-5
COc1ccc(N2CCN(C(=O)Cc3ccc(Cl)cc3)CC2)cc1	-22	-14	0.3	6.5	.	.	4	-1.2	0.4	-2
CCC1COCCS(=O)(=O)N1Cc1cccc(Cl)c1 (centres undefined)	2	6	-7.1	3.7	-6	.	-15	0.6	0.6	2
COc1ccc(-c2csc(-n3ncc(C(=O)O)c3C(F)(F)F)n2)cc1	-18	-13	2.6	-3.2	3	-2%	0	-2.9	-1.6	11
COc1ccccc1NC(=O)N1CCn2c(nc3ccccc32)C1	.	.	.	.	-3	2%	-10	9.1	0.1	3
O=C(CSCc1c(Cl)cccc1Cl)Nc1ccccc1C(=O)N1CCOCC1	.	.	.	.	-6	?	-3	0.5	-0.1	-4
Cc1ccc(S(=O)(=O)N2CCN(c3ccc(S(=O)(=O)N4CCOCC4)cn3)CC2)cc1	.	.	.	.	1	10%	11	-0.1	0.6	12
COc1ncccc1C(=O)N1CCCC(C(=O)c2cccc(OC(C)C)c2)C1 (centres undefined)	16	14	3.7	0.6	-2	?	-3	3.4	0.6	-7
Oc1oc(-c2ccccc2)nc1/C=N/c1ccccn1	14	24	1.8	2.3	-4	3%	-4	-4.9	-1.5	2
Cc1nn(CC(=O)N2CCN(c3ccccc3)CC2)c(C)c1[N+](=O)[O-]	3	-2	-3.2	3.3	-6	.	-6	-0.5	-0.5	-12
CC(C)n1cc(CN2CCCC(CO)(Cc3cccc(Cl)c3)C2)cn1 (centres undefined)	6	-2	-3.5	4.9	-6	?	51	-1.4	0.4	-5
COc1ccc(C(=O)Nc2ccc(NC(=O)c3ccccc3F)cn2)cc1	2	10	-3.3	1.8	-6	.	1	1.6	-0.1	1
Cn1c(=O)c2c(nc(OCc3ccc4c(c3)OCO4)n2Cc2ccccc2Cl)n(C)c1=O	.	.	.	.	.	-1%	8	-2.9	-0.3	-12
CCOC(=O)c1cnc2ccc(C)cc2c1N(C)Cc1ccccc1	-44	-71	-21	1.5	4	7%	27	3.2	0.9	4
Cc1ccc(N2CC(C(=O)NCc3cccs3)CC2=O)cc1 (centres undefined)	.	.	.	.	.	17%	-5	?	-0.4	?
Cc1nn(C)c(C(=O)NNC(=S)NCc2ccccc2)c1Cl	-6	-8	-2.7	-3.2	.	.	-4	5.0	.	-1
CCN(CC)C(=O)CCCc1c[nH]c2ccccc12	14	3	0.0	-1.1	-5	.	6	3.6	3.6	-3
CCOC(=O)c1ccc(NC(=O)c2ccc3c(c2)C(=O)N(Cc2cccnc2)C3=O)cc1	8	22	0.8	-7.2	-2	-2%	-5	?	-0.1	-10
COc1ccc(-n2nc3cc(C)c(NC(=S)NC(=O)c4ccccc4C)cc3n2)cc1	.	.	.	.	-2	-9%	11	-0.4	-0.2	1
CCn1c(SCC(=O)n2nc(C)cc2C)nnc1-c1ccc2c(c1)OCO2	.	.	.	.	.	68%	-8	-1.9	0.5	28
O=C(C1CCC(=O)N(C2CCCC2)C1)N1CCC(Oc2cccc(F)c2)CC1 (centres undefined)	0	-4	1.5	0.1	-1	1%	-6	3.2	-0.5	-10
OCC(CO)(CO)N=Cc1cc(Br)ccc1O	4	12	-2.7	5.0	-4	?	-17	4.4	-0.4	21
CCOc1ncccc1C(=O)OCC(=O)Nc1c(C)cc(C)cc1C	.	.	.	.	-4	3%	-8	-4.2	0.9	3
COc1ccc(OCCn2c(C)c(/C=N/n3cnnc3)c3ccccc32)cc1	.	.	.	.	3	-5%	28	-1.0	-0.6	-4
COc1ccc(S(=O)(=O)N2CCC(C(=O)NCCC(=O)NCc3cccc(OC)c3)CC2)cc1	2	1	-1.4	-1.5	.	.	-2	-0.1	1.2	-5
CC1CCCC(NC(=O)CN(C)S(=O)(=O)c2cccc3cccnc23)C1C (centres undefined)	-16	-26	1.3	-1.8	.	3%	1	1.2	0.2	2
CCCCn1c(NCc2ccc(N(C)C)cc2)nc2ccccc21	-12	4	16	29*	7	.	21	-0.5	0.6	3
Cc1cc(NC(=O)CSc2nc3c(C)cccc3cc2C)no1	14	14	-0.1	-1.9	0	.	0	2.1	-0.6	8
CC(C)OC(=O)CSc1nnc(Cc2ccccc2)n1C	.	.	.	.	1	1%	-1	-2.2	1.0	-10
CCCc1ccc(S(=O)(=O)N2CCN(Cc3ccco3)CC2)cc1	-13	-28	-4.1	-3.2	-8	.	7	.	0.7	.
COc1ccc(OC)c(NC(=O)CN(Cc2ccc(F)cc2)C2CCCCC2)c1	1	-19	-3.4	3.5	100*	.	23	3.0	-0.5	13
N=c1c2c3c(sc2ncn1CCN1CCOCC1)CCCCC3	.	.	.	.	-4	6%	5	0.9	0.2	24
C=CCn1c(CCC)nc2ccccc21	8	11	-6.1	-0.9	-2	6%	-12	-2.0	0.4	-16

The listing continues:
SMILES	Ecoli rRNA inh	Ecoli rRNA inh OD600	Ecoli rRNA inh RFP	AF4-AF9 inh	Beta apoptosis	Vif TR-FRET	T cruzi inh	RanGTP-Impb inh	Bfl-1 A1 inh	Calb FLC
Cc1cccn2c(=O)c3cc(C(=O)NC4CCCCC4C)n(C)c3nc12 (centres undefined)	-2	-2	9.5	-2.0	-1	.	1	1.7	0.5	0
COC(=O)c1c(NC(=O)C2COc3ccccc3O2)sc2c1CCN(C(C)=O)C2 (centres undefined)	.	.	.	.	7	?	22	-0.9	1.2	9
Nc1c(S(=O)(=O)c2cccs2)c2nc3ccccc3nc2n1CC1CCCO1 (centres undefined)	15	-3	-8.0	-7.6	0	11%	.	.	1.1	.
COc1ccc2c(c1)C(=O)c1ccccc1CO2	.	.	.	.	-4	52µM*	-7	1.5	-7.9	-29
Cc1ccc(OCc2nnc(NC(=O)c3ccco3)s2)cc1	.	.	.	.	-8	5%	1	2.5	0.5	16
NC(=O)Nc1ccccc1C(=O)Nc1ccc2ccccc2c1	11	7	4.5	-3.7	10	.	-15	-0.1	1.7	4
CCn1c(=O)cc(SCC(=O)Nc2ccc(C)cn2)c2ccccc21	14	8	3.6	-0.7	52	.	-2	-2.8	0.1	-3
CCOc1ccc(-c2nc(CSc3nnc(C)s3)cs2)cc1OC	.	.	.	.	2	-4%	-5	5.6	-0.8	-2
CCOC(=O)c1ccc(NC(=O)NCc2ccccc2OC)cc1	-33	-42	-0.2	0.9	3	-1%	33	?	-0.8	-7
Cc1noc(NS(=O)(=O)c2ccc(NC(=O)/C=C/c3ccccc3)cc2)c1C	-26	-25	-5.9	-2.5	-5	.	.	.	-1.0	.
CCOc1cc(C(=O)N2CCN(c3ccccc3)CC2)cc(OCC)c1OCC	.	.	.	.	-1	20%	-5	-1.8	-0.5	8
Cc1cccc(CSc2ccc(S(=O)(=O)N3CCCC3)cn2)c1	-9	-18	-12	-18	-3	-12%	.	.	0.4	.
Nc1nnc(-c2ccccc2[N+](=O)[O-])o1	17	12	2.2	-1.4	0	19%	-1	-1.5	0.8	-4
O=C(CCCNS(=O)(=O)c1ccc(F)cc1)Nc1ccc(F)cc1	3	13	-0.3	1.4	-2	.	-21	4.4	1.6	-2
Cc1cccc(/C(N)=N/OC(=O)CCCc2ccccc2)c1	-3	1	-5.0	-1.0	.	-4%	8	0.5	-0.3	-7
O=[N+]([O-])c1ccc(Cl)c(/C=N/n2c(-c3cccnc3)n[nH]c2=S)c1	.	.	.	.	-4	-1%	-19	0.4	-0.7	-13
Cc1ccc(CCNC(=O)C2CCCN(S(=O)(=O)c3cccc4nsnc34)C2)cc1 (centres undefined)	.	.	.	.	0	-3%	2	1.2	0.8	3
CC(C)(O)CC[C@@H](O)[C@](C)(O)[C@H]1CC[C@@]2(O)C3=CC(=O)[C@@H]4C[C@@H](O)[C@@H](O)C[C@]4(C)[C@H]3CC[C@]12C	.	.	.	6.0	-5	.	-16	-4.4	-1.1	4

This is a subset; count on the stated rates, not on these rows.
